# Calb FLC: C. albicans growth inhibition with fluconazole, primary screen, CaCi-2 strain, Alamar Blue fluorescence. 300,000 tested, 0.57% active. growth inhibition, % (concentration not given with the values). C. albicans CaCi-2 (fluconazole-resistant clinical isolate) + fluconazole, 48 h;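 active means most replicates above 75%; inconclusive means exactly half above 75%; inactive means most below 75%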;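 further: all wells also contain fluconazole at 8 µg/ml as a sub-toxic cotreatment; 0% = median of DMSO wells and 100% = median of geldanamycin control wells; wells of about 8 µL received 7.5 nL stock; the first replicate is given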
# RanGTP-Impb inh: inhibitors of RanGTP-importin-beta interaction, primary screen, biochemical, FRET, CFP-Ran, YFP-importin-beta, homogeneous. 300,000 tested, 1.1% active. cell-free CFP-Ran/YFP-importin-beta FRET ratio. inhibition, % (concentration not given with the values). AID 2216, 2009. Ran GTPase (GTP-bound) - importin-beta complex;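 active means most replicates above 15%; inconclusive means exactly half above 15%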;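 further: 0% = DMSO wells and 100% = Ran loaded with GDP instead of GTP; wells of about 40 µL received 100 nL stock; the first replicate is given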
# UCH37 DUB inh: inhibitors of human UCH37 deubiquitinase, primary screen, biochemical, Ub-AMC cleavage, fluorescence; Ubiquitin carboxyl-terminal hydrolase isozyme L5 (Homo sapiens), Q9Y5K5; purified proteasome/UCH37; inhibition, % (concentration not given with the values); 330,000 tested, 0.33% active;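 active means mean of two replicates above 20%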;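 further: 0% = compound-free wells with enzyme and 100% = wells lacking proteasome; stock transfer was 100 nL into about 20 µL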
# Target sequence (Q9Y5K5 whole entry, looked up): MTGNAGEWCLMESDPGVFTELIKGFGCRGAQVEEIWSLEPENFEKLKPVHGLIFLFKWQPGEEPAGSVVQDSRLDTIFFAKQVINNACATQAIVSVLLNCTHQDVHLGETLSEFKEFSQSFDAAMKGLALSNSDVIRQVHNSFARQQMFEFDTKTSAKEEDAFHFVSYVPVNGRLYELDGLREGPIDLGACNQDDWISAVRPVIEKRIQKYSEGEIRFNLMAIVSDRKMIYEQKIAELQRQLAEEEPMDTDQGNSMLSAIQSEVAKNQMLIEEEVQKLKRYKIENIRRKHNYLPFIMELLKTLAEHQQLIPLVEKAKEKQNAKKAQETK
#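 Material: Human UCH37 enzyme supplied as purified proteasome complex | Schedule: 30 min preincubation with enzyme, 25 min cleavage at room temperature | Detection: AMC fluorescence 355/460 nm | Measure: % inhibition of Ub-AMC cleavage fluorescence | Controls: Wells without proteasome as full block, compound-free enzyme plus substrate as uninhibited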
# Beta2AR agonist: beta2AR agonists driving receptor internalization, primary screen, cell-based, FAP fluorogen, flow cytometry. Beta-2 adrenergic receptor (Homo sapiens), P07550. Am2.2-beta2AR cells; reference of the scale not given here. response, % (no concentration beside the values). 340,000 tested, 0.43% active. AID 504454, 2011;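 active means response above a set limit, near 3 SD of response in nonfluorescent compounds, cut at about 42% in these data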;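 further: stock transfer was 100 nL into about 11 µL; a reference agonist was the positive control; negative values mostly stem from fluorescent compounds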
# Target sequence (P07550 whole entry, looked up): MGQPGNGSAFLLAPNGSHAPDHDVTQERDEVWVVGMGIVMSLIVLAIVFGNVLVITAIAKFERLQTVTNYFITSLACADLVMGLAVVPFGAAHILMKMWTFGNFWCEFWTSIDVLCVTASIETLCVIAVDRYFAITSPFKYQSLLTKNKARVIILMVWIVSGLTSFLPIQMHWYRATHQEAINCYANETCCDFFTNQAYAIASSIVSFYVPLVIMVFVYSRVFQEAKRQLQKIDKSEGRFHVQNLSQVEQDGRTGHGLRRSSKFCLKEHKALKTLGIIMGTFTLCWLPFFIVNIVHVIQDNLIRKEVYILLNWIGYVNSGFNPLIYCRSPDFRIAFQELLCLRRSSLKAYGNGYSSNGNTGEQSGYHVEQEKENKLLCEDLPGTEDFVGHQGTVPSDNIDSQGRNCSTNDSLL
# Bfl-1 A1 inh: caspase 3/7 activation in MEF A1-2A-BIM cells, primary screen, A1 inhibitor project, cell-based, luminescence, HTS. Caspase-Glo 3/7 luminescence, 3 h; percent of clofoctol response, vehicle zero. caspase activation, % (no concentration beside the values). 330,000 tested, 0.066% active. AID 2462, 2010;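 active means over half of replicate activation scores above 10%, or exactly half above 10 with the replicate mean above 10; inconclusive means replicate mean below 10 yet half the replicates above 10; inactive means over half of replicates below 10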;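 further: wells of about 30 µL received 50 nL stock; many hits fall short of the cut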
# LANA-H2A inh: blockers of LANA interaction with H2A/H2B – biochemical, FP readout, HTS, primary screen. Protein LANA1 (Human herpesvirus 8 type P (isolate GK18)), Q9QR71. cell-free LANA-H2A/H2B peptide, fluorescence polarization. inhibition, % (concentration not given with the values). 320,000 tested, 0.6% active. AID 2629, 2010; in the data active means inhibition mostly above about 10%, no sharp cut-off; inactive means mostly below about 6.7%;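 further: stock transfer was 7.5 nL into about 10 µL; 0% = median of vehicle wells and 100% = median of positive control wells; one replicate is shown; the record names a cut of 25% in any replicate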
# T cruzi repl: inhibitors of intracellular T. cruzi growth, primary screen, luminescence, NIH3T3 host cells. T. cruzi beta-gal in NIH3T3, 90 h. inhibition, % (no concentration beside the values). 300,000 tested, 1.4% active;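 active means mean inhibition across valid replicates above about 55%, limit read from the data; inconclusive means mean below that limit but half or more replicates reach it; inactive means mean below it, under half of replicates reach it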;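 further: signal also drops with host cell toxicity which is not excluded here; 0% = plate median of DMSO wells and 100% = zero luminescence signal; higher percent means less beta-gal luminescence so fewer parasites; stock transfer was 50 nL into about 50 µL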
# Beta cell apopt: inhibitors of cytokine-induced beta cell apoptosis, primary screen, luminescence; INS-1E cytokine-induced death, ATP luminescence, 48 h; percent of positive-control rescue, neutral wells zero; protection from apoptosis, % (concentration not given with the values); 300,000 tested, 0.8% active;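 active means all replicates at 75% or more, or half of them and the mean; inconclusive means half reach 75% but not the mean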;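 further: 0% = cytokine-treated negative control wells and 100% = positive control rescue; higher means more ATP so stronger rescue from cytokine killing; wells of about 40 µL received 100 nL stock; the first replicate is given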
# * = called active by the depositor; ? = inconclusive; . = no result given. Not a hit list (roughly 4.3% active in at least one column).
canonical_smiles	Calb FLC	RanGTP-Impb inh	UCH37 DUB inh	Beta2AR agonist	Bfl-1 A1 inh	LANA-H2A inh	T cruzi repl	Beta cell apopt
CCC1=NN(C(=O)c2cccc([N+](=O)[O-])c2)C(O)(c2ccc(C)cc2)C1 (stereo not given)	-8	-3.4	6.0	-1	-0.7	0.2	-10	.
O=C(NC1CCCN(CCc2ccccc2)C1)c1c[nH]c2ccccc12 (stereo not given)	31	?	0.5	3	1.6	-2.7	18	.
O=C1CN(c2ccc(Br)cc2)C(=O)N1CC(=O)N1CCCc2ccccc21	-5	7.6	2.0	5	0.9	1.6	30	-3
CC1Cc2cc(/C(O)=C3/C(=O)C(=O)N(CCN4CCOCC4)C3c3cccc(Cl)c3)ccc2O1 (stereo not given)	0	-1.7	2.2	-6	-1.1	8.4	-13	-1
O=C(Nc1cccnc1)Nc1cccc(F)c1	12	0.6	1.4	4	-1.8	5.0	4	-4
O=C(NCC(c1ccco1)N1CCc2ccccc2C1)c1ccccc1 (stereo not given)	0	-1.5	0.6	6	0.8	5.2	-4	-1
CCC(C(=O)NC1CCCC1)n1nc(C)n2c(cc3occc32)c1=O (stereo not given)	8	0.4	-0.1	-14	-0.3	0.2	16	-5
CCCN(CC(=O)Nc1ccccc1C)C(=O)C1CC(=O)N(c2ccccc2C(C)CC)C1 (stereo not given)	.	.	1.9	4	0.7	-0.3	.	-1
CCN(CC)S(=O)(=O)c1cccc(NC2=NCC(C)S2)c1 (stereo not given)	-4	?	-2.1	-1	0.1	-1.0	-3	1
O=C(Nc1ccccc1Oc1ccccc1)C1=COCCO1	3	-0.6	5.7	13	-0.8	-3.9	-5	-2
O=C(C(c1ccccc1)c1ccccc1)N1CCCc2ccccc21	-9	-2.6	-0.1	-7	0.4	-6.0	9	5
Fc1ccc(C2=Nn3c(nnc3-c3ccco3)SC2)cc1	-2	-1.9	7.1	-2	1.0	2.5	-3	.
Cc1cc(C)c(S(=O)(=O)Nc2ccccc2-c2ccccc2)c(C)c1	18	?	2.2	3	1.6	-2.0	17	7
O=C(Nc1cc2c(cc1Cl)OCCCO2)c1ccco1	-11	-1.5	2.1	-12	1.1	-0.4	-8	-3
O=C(O)c1ccc(/C=N/N2CCN(Cc3ccccc3)CC2)cc1	-4	3.3	.	7	-0.7	1.6	-2	-3
CS(=O)(=O)N(CCc1ccccc1)CC(=O)N1CCCCC1	-7	-0.4	1.0	-3	-0.9	1.3	-4	-5
CCOC(=O)Nc1sc2c(c1C(N)=O)CCC(C)C2 (stereo not given)	16	3.1	1.2	-14	-0.2	-2.2	18	4
N#CCCN1CCN(C(=O)c2c(N)no[n+]2[O-])CC1	12	-0.1	3.5	1	-0.4	3.3	-7	-4
O=C(C[C@H]1C/C=C\C[C@@H](NC(=O)OCC2c3ccccc3-c3ccccc32)C(=O)O[C@@H](c2ccccc2)CNC1=O)N[C@H](CO)Cc1ccccc1	.	.	-0.9	-4	-0.2	8.0	.	54
C=C[C@@H]1c2cccc(C)c2N(S(=O)(=O)c2ccc(C)cc2)[C@H](c2ccc(OC(C)=O)cc2)C1(C#N)C#N	.	.	-1.9	5	-0.1	-3.4	.	2
Cc1nc2sc(C(c3cccc(F)c3)N3CCCCC3)c(O)n2n1 (stereo not given)	3	0.8	2.0	0	-0.6	-4.5	1	-5
CCCCCCCNC(=O)C1(CC2CC(c3ccc(Cl)cc3)=NO2)CCN(C(=O)CCCCCBr)CC1 (stereo not given)	-19	2.6	1.8	-3	0.9	-1.3	7	0
Cc1ccc(S(=O)(=O)NC(=O)Nc2cccc(S(=O)(=O)N(C)C)c2)cc1	.	.	-0.3	-6	2.0	-6.4	.	-8
O=C(O)c1ccccc1-n1cnnn1	-2	-2.8	-0.1	4	1.0	2.8	-2	-5
O=C(O)c1cccc(C(=O)O)c1	0	-1.8	4.1	1	0.3	-3.0	-20	-7
COc1ccc(Cl)cc1NC(=O)C12CCC(C)(C(=O)O1)C2(C)C (stereo not given)	-37	4.5	0.1	-2	0.5	-7.7	1	-5
Cc1onc(-c2ccccc2Cl)c1C(=O)NCc1ccccc1F	18	2.2	-2.2	-15	-0.7	8.3	-11	0
O=C(NCc1ccc(N2CCCC2=O)cc1)Nc1cccc(Cl)c1	-8	-1.3	3.8	-3	0.8	-5.7	1	10
COc1cc(/C=C2\C(=O)ON=C2c2ccc(Cl)cc2)ccc1O	1	?	1.3	26	0.2	-2.5	-17	-36
Cc1cc(C)n2nc(C(=O)OCC(=O)N3CC(C)CC(C)C3)nc2n1 (stereo not given)	1	1.7	-0.9	-7	0.7	-2.0	-1	-4

# An excerpt from above in order of the UCH37 DUB inh value, smallest number first:
smiles | UCH37 DUB inh
CS(=O)(=O)N(CCc1ccccc1)CC(=O)N1CCCCC1 | 1.0
CCOC(=O)Nc1sc2c(c1C(N)=O)CCC(C)C2 (stereo not given) | 1.2
Cc1nc2sc(C(c3cccc(F)c3)N3CCCCC3)c(O)n2n1 (stereo not given) | 2.0

# (more compounds)
canonical_smiles	Calb FLC	RanGTP-Impb inh	UCH37 DUB inh	Beta2AR agonist	Bfl-1 A1 inh	LANA-H2A inh	T cruzi repl	Beta cell apopt
O=C(NCc1ccccn1)c1ccc(Cl)c(S(=O)(=O)Nc2ccccc2C(=O)NCc2ccccn2)c1	-3	-3.4	1.7	3	1.3	2.3	0	1
O=C(COc1ccccc1)N/N=C/c1ccc([N+](=O)[O-])o1	-16	1.8	.	3	0.2	2.6	83*	10
COc1ccc(OC)c(/C=N/NC(=O)c2cccc3ccccc23)c1	3	1.5	.	7	1.2	4.8	-10	.
Cc1ccc(OCc2nc(-c3cccnc3)no2)cc1C	-3	3.1	4.8	7	-0.5	-15	1	-3
CC(=O)CCc1ccc(OCC(O)CNC2CCCc3ccccc32)cc1 (stereo not given)	2	3.7	-0.6	-7	?	.	49	-9
Cc1onc(-c2ccccc2Cl)c1C(=O)N1CCCCC1C (stereo not given)	-8	5.1	-0.8	-3	2.9	2.9	3	-8
O=C(NCCC1=CCCCC1)C1CCN(S(=O)(=O)c2cccc3nonc23)CC1	-2	-1.0	5.8	.	-0.6	1.3	10	-2
COc1ccc(N2CC(NC(=O)NCC(C)C)CC2=O)cc1 (stereo not given)	3	-0.2	-1.4	-1	0.0	0.6	-4	-8
CCCCC(=O)Nc1nc2ccc3nc(C)sc3c2s1	-3	-1.3	1.8	0	0.2	6.8	-7	3
Cc1ccc(NC(=O)C2CCN(c3cnccn3)CC2)cc1C	5	-2.3	-6.2	4	-0.4	2.2	64*	-1
COc1ccc(CNC(=O)COC(=O)C2CC3C=CC2C3)cc1 (stereo not given)	4	6.4	-2.0	-2	-1.4	-6.3	-6	-1
Cc1occc1-c1nnc(SCC(=O)NC2CCCC2)n1C	2	1.6	7.9	-2	0.2	-2.6	-8	5
O=S(=O)(/N=C(/Nc1ccc(Cl)cc1Cl)c1ccccc1)c1cccs1	33	0.7	4.5	-1	0.4	2.9	4	2
Cc1c(Br)c([N+](=O)[O-])nn1CCCC(=O)Nc1c(C)n(C)n(-c2ccccc2)c1=O	3	-3.8	2.3	3	-0.4	3.4	27	-5
S=C(NCc1ccccc1)Nc1nccs1	-5	-1.3	.	1	-0.7	7.2	-7	6
CCc1ccc(CNC(=O)CCCn2nc(C)n3ccnc3c2=O)cc1	-5	6.1	5.8	13	.	-0.5	-10	1
Cc1ccc(N=C/C(C(=O)C(F)(F)F)=C(\O)c2ccco2)cc1Cl	6	-2.8	6.6	-6	-2.8	1.2	-12	-10
Cc1ccc(-c2nnc(Nc3ccc4c(c3)OCO4)c3ccccc23)cc1S(N)(=O)=O	21	-3.1	2.8	0	0.5	.	25	6

# Structural class: the compounds so far with a furan ring, fused or not (7)
canonical_smiles	Calb FLC	RanGTP-Impb inh	UCH37 DUB inh	Beta2AR agonist	Bfl-1 A1 inh	LANA-H2A inh	T cruzi repl	Beta cell apopt
O=C(NCC(c1ccco1)N1CCc2ccccc2C1)c1ccccc1 (stereo not given)	0	-1.5	0.6	6	0.8	5.2	-4	-1
CCC(C(=O)NC1CCCC1)n1nc(C)n2c(cc3occc32)c1=O (stereo not given)	8	0.4	-0.1	-14	-0.3	0.2	16	-5
Fc1ccc(C2=Nn3c(nnc3-c3ccco3)SC2)cc1	-2	-1.9	7.1	-2	1.0	2.5	-3	.
O=C(Nc1cc2c(cc1Cl)OCCCO2)c1ccco1	-11	-1.5	2.1	-12	1.1	-0.4	-8	-3
O=C(COc1ccccc1)N/N=C/c1ccc([N+](=O)[O-])o1	-16	1.8	.	3	0.2	2.6	83*	10
Cc1occc1-c1nnc(SCC(=O)NC2CCCC2)n1C	2	1.6	7.9	-2	0.2	-2.6	-8	5
Cc1ccc(N=C/C(C(=O)C(F)(F)F)=C(\O)c2ccco2)cc1Cl	6	-2.8	6.6	-6	-2.8	1.2	-12	-10

# Source: PubChem (several laboratories)
